HSD17B inh: blocks hydroxysteroid 17-beta dehydrogenase activity | Q99714 | recombinant HSD17B10, NADH fluorescence kinetic; many of its hits are not listed in these tables | Potency, µM (titrated, usually from 57.1 µM), for the others: at the highest dose activity change, negative = inhibition, actives largely listed as inhibitors | 75,000 tested, 7.6% active; active = well fitted inhibition curve with a large enough effect; inconclusive = small, poorly fitted or top-dose-only effect; inactive = no such curve, though single readings can be large or run the other way;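 note: the protocol describes HADH2 (HSD17B10) and not the HSD17B4 of the title; nearly all actives have a fitted effect of over 70% in size; most hits overshoot -100% by far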
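Enzyme plus compound, 15 min room temperature; substrate mix added (NAD+ 1 mM, beta-hydroxybutyryl-CoA 90 uM final); plates read kinetically for NADH fluorescence. HADH2 was His-tagged, E. coli-derived, 20 nM.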
Starred values were filed as active, the others as inactive; ? = inconclusive; [ ] = dose if it differs, or a comment. % is set by controls: 0 for no effect and ±100 for the full control effect; potency is the fitted concentration of half-maximal effect. An excerpt (hit frequency here may not be typical).

entry	canonical_smiles	HSD17B inh
1	O=C(Cn1c(=O)n(-c2ccc(F)cc2)c(=O)c2sccc21)N1CCCC1	4%
2	CCn1c(SCC(=O)c2ccc3c(c2)OCCO3)nnc1-c1ccco1	-12%
3	COc1ccc(-c2nnc(SCC(=O)Nc3sc4c(c3C#N)CCC4)n2CC2CCCO2)cc1 (stereo unspecified)	-18%
4	O=C(O)[C@H]1C[C@H](C(=O)O)N1	-13%
5	COc1cc(C2C(C#N)=C(N)Oc3cc(C)n(CC4CCCO4)c(=O)c32)cc2c1OCO2 (stereo unspecified)	?
6	Cc1cccc(CNc2cc(-c3ccc(C(=O)N(C)C)cc3)ncn2)c1	32µM*
7	Cn1cccc1C(=O)OCC(=O)c1cc2ccccc2o1	-1%
8	CC(=O)Nc1cccc(NC(=O)CSc2ncc(-c3ccc(Cl)cc3)n2Cc2ccco2)c1	-17%
9	Nc1nnc(-c2ccccc2Cl)s1	?
10	O=c1/c(=C\c2ccc3c(c2)OCO3)sc2n1CCCN=2	297%[activator]
11	CCC(=O)Nc1nonc1-c1nc2ccccc2n1Cc1ccccc1	25µM*
12	COc1ccccc1-c1cn(S(=O)(=O)c2ccc(C)cc2)nc1N	1%
13	CC(C)=NO[C@@H](C)CN1CCCCc2nc(C)c(C)cc21	-1%[11.4 µM]
14	CN1CCN(/C=N/c2c(C#N)cnn2C)CC1	7%
15	CCOC(=O)N1CCN(C(=O)c2cc3c(=O)[nH]c4ccccc4c3s2)CC1	20µM*
16	O=C(c1cccs1)N1CCN(C/C=C/c2ccccc2)CC1	-1%
17	Cc1cc(C(=O)N2CCCCCC2)cs1	9%
18	O=C(CCC1N=C2c3ccccc3N=C(SCc3ccccc3Cl)N2C1=O)NCc1ccco1 (stereo unspecified)	32µM*
19	Fc1ccccc1OCCSc1nnnn1-c1ccccc1	-6%
20	CCOC(=O)C1CCCN(C(=O)c2cn(CC)c3ccc(S(=O)(=O)N4CCCC4)cc3c2=O)C1 (stereo unspecified)	-6%
21	COc1ccc(N(C2CSC2)S(=O)(=O)c2ccccc2)cc1	-6%
22	COCCCNC(=O)CS(=O)(=O)Cc1nc(-c2ccccc2C)oc1C	5%
23	Cn1cccc1Cc1nnc(SCC(=O)Nc2ccc(F)cc2)n1-c1ccc(F)cc1	4%
24	CN(C)c1ccc(/C=C2/C(=O)Nc3ccccc32)cc1	-14%
25	CN(C)S(=O)(=O)c1cccc(C(=O)N2CCc3ccccc32)c1	-19%
26	CC(=O)c1cc(-c2nc3ccccc3n2C)n(C)c1	-3%
27	COC(=O)C1=C(C)N(Cc2cccnc2)C(=O)C1	6%
28	Cc1noc(C)c1CSc1ccccc1C(=O)N1CCN(c2ccccc2)CC1	-21%
29	O=C(O)[C@@H](c1ccccc1)N1Cc2ccccc2C1=O	?
30	Cc1ccc(OC(C)C(=O)N2CCc3ccccc32)cc1 (stereo unspecified)	2%
31	Cn1c(=O)n(CC(N)=O)c2ccccc21	6%
32	COc1ccc(Nc2nc(C)c3ccccc3n2)cc1	16%
33	COc1cc(OC)c(C(C)=O)c(O)c1C	5%
34	C=CCOC(=O)C1=C(C)NC(=O)NC1c1cn(-c2ccccc2)nc1-c1cccs1 (stereo unspecified)	-7%
35	CC1(C)C(=O)C(c2ccccc2)=C2CN3C(=O)N(CCc4ccccc4)C(=O)C3(Cc3ccc(F)cc3)C=C21 (stereo unspecified)	5%
36	COC(=O)Cn1c2ccc(OC)cc2c2nc3ccccc3nc21	11%
37	S=c1sc2c(N3CCOCC3)ncnc2n1-c1ccccc1	7%
38	CN(CCCNC(=O)c1cn(C)c2ccc(S(=O)(=O)N(C)C)cc2c1=O)c1ccccc1	33%[activator]
39	COc1ccc(C2=NOC(C(=O)N3CCCCCC3)C2)cc1OC (stereo unspecified)	8%
40	COC(=O)c1ccc(CSc2nc(C(F)(F)F)c3c(c2C#N)CCC3)o1	25µM*
41	CC(=O)c1cccc(NC(=O)C2CCCC2)c1	-1%
42	CCN1CCCC1CNC(=O)C1CCN(Cc2nc(-c3cccc(Br)c3)oc2C)CC1 (stereo unspecified)	23%
43	O=C(Nc1ccc2c(c1)OCO2)C1CCN(S(=O)(=O)c2ccc3c(c2)OCCO3)CC1	5%
44	CN=c1scc(C)n1/N=C/c1ccc(O)cc1O	-26%
45	CCCCOC(=O)C1=C(C)Nc2ncnn2C1c1cc(OC)ccc1OC (stereo unspecified)	-9%
46	Cc1cccc(CNc2ncncc2-c2ccc(C(=O)N(C)C)cc2)c1	32µM*
47	CCOC(=O)C1CCN(S(=O)(=O)c2cccc(-c3cn4cccc(C)c4n3)c2)CC1	?
48	Cc1cc(Oc2ccccc2)nc2ccc(O)cc12	25µM*
49	Cn1c(N2CCN(C(=O)C34CC5CC(CC(C5)C3)C4)CC2)nc2ccccc21	2%
50	Cc1ccc(N(CC(=O)NCc2ccncc2)S(C)(=O)=O)cc1Cl	0%

Quoted from the results shown for reference:
entry	canonical_smiles	HSD17B inh
49	Cn1c(N2CCN(C(=O)C34CC5CC(CC(C5)C3)C4)CC2)nc2ccccc21	2%
50	Cc1ccc(N(CC(=O)NCc2ccncc2)S(C)(=O)=O)cc1Cl	0%

The list continues.
entry	canonical_smiles	HSD17B inh
51	COc1ccc(CCn2c(C)cc(C(=O)CSc3nnc(N)s3)c2C)cc1	-7%
52	O=C(Nc1ccc2c(c1)OCO2)C(c1ccc(Cl)cc1)N1CCN(C(=O)c2ccco2)CC1 (stereo unspecified)	4%
53	Cc1ccc(S(=O)(=O)NCCC(=O)N2CCCCC2)cc1	7%
54	O=C(CSc1nccn1-c1ccccc1)NCc1ccc2c(c1)OCO2	3%
55	CCN1CCC(O)([C@H](C(=O)O)c2ccccc2)CC1	8%[11.4 µM]
56	Cc1cc2cc(OCC(=O)O)ccc2n1C	-13%
57	CC1C(=O)CCC2[C@]1(C)CCC1[C@]2(C)CC[C@@]2(C)C3CC(C)(C)CC[C@]3(C)CC[C@@]12C (stereo partly specified)	2%
58	CCOc1c(Br)ccc2c1sc1nc[nH]c(=O)c12	12%
59	O=C(O)c1ccccc1S(=O)(=O)NCC(O)COc1ccc(Br)cc1 (stereo unspecified)	2%
60	Cn1c(=O)c2c(nc(SCC(=O)N3CCCc4ccccc43)n2C)n(C)c1=O	15%
61	CC1(C)CC(=O)C2=C(C1)NC(=O)CC2C(=O)NCc1ccc(F)cc1 (stereo unspecified)	0%
62	Cc1ccc(N2C(=O)[C@@H]3[C@H](C2=O)C2c4ccccc4C=CN2[C@@H]3C(=O)c2ccco2)c(C)c1 (stereo partly specified)	?
63	CCOC(=O)c1cc2c(ccn2C)n1CC(=O)N1CCN(c2ccc(F)cc2)CC1	?
64	S=C(Nc1ccc2cn[nH]c2c1)Nc1ccc2cn[nH]c2c1	?
65	CC(=O)c1cccc(NC(=O)N2CCCC2C(=O)Nc2ccccc2C)c1 (stereo unspecified)	0%
66	COc1nc(Nc2cccc(C)c2)nc(N2CCCCC2)n1	-2%
67	CN1CCc2c(sc3c2c(=O)n(-c2ccccc2)c2nncn32)C1	?
68	Cc1cc(C)nc(NC2=NCC(=O)N2c2cc(Cl)cc(Cl)c2)n1	7%
69	c1ccc(CC2CCN(c3nc4ccccc4n4nnnc34)CC2)cc1	10µM*
70	CCCC(=O)Nc1cc(-c2nn(C)c(=O)c3ccccc23)ccc1N1CCCCC1	-6%
71	COC(=O)c1ccc(C23CC4(C2)[C@H](CN(CC2CCCCC2)[C@@H]4c2ccccc2)C3c2ccccc2)cc1 (stereo partly specified)	-2%
72	CCN(Cc1cc2ccccc2[nH]c1=O)C(=O)c1cccnc1	3%
73	CCCNC(=O)c1ccccc1NS(=O)(=O)c1ccc2c(c1)OCCO2	?
74	O=C(CN1CCN(c2ncccn2)CC1)N1CCN(C(c2ccccc2)c2ccccc2)CC1	-7%
75	O=C(c1ccco1)N1CCN(CC(=O)N(C2CCCCC2)C2CCS(=O)(=O)C2)CC1 (stereo unspecified)	3%

Retrieved one by one from the list above:
entry	canonical_smiles	HSD17B inh
59	O=C(O)c1ccccc1S(=O)(=O)NCC(O)COc1ccc(Br)cc1 (stereo unspecified)	2%
64	S=C(Nc1ccc2cn[nH]c2c1)Nc1ccc2cn[nH]c2c1	?
66	COc1nc(Nc2cccc(C)c2)nc(N2CCCCC2)n1	-2%
62	Cc1ccc(N2C(=O)[C@@H]3[C@H](C2=O)C2c4ccccc4C=CN2[C@@H]3C(=O)c2ccco2)c(C)c1 (stereo partly specified)	?
58	CCOc1c(Br)ccc2c1sc1nc[nH]c(=O)c12	12%

(further entries)
entry	canonical_smiles	HSD17B inh
76	Cc1cnn(-c2cc(Oc3ccccc3)ncn2)c1	9%
77	CN(C)CCCN1C(=O)CSC1c1ccccc1 (stereo unspecified)	3%
78	COC(=O)C1(Cc2ccccc2)C=C2C(=C(C)C(=O)C2C)CN1 (stereo unspecified)	-5%
79	CCOC(=O)Cc1nnc(NC(=O)c2ccco2)s1	-13%
80	CCOC(=O)C1=C(C)OC(N)=C(C#N)C1c1ccc(OC)c(C)c1OC (stereo unspecified)	3%
81	COCC(=O)N1CCC2(CC1)CCN(C(=O)Nc1ccc(OC)cc1)CC2	2%
82	COc1cc(Br)c(S(=O)(=O)Nc2c(C)n(C)n(-c3ccccc3)c2=O)cc1OC	-4%
83	O=C(O)CSc1ncccc1[N+](=O)[O-]	-1%[11.4 µM]
84	CCOC(=O)C(CC)n1cnc2c(nnn2-c2ccc(OC)cc2)c1=O (stereo unspecified)	-1%
85	N=c1c2c3c(sc2ncn1CCCN1CCOCC1)CCCCC3	6%
86	CCOC(=O)C1Cn2c(nc3c(c2=O)C(C)(C)Cc2ccccc2-3)S1 (stereo unspecified)	?
87	CC(Oc1ccccc1F)C(=O)NCCN1CCCCC1 (stereo unspecified)	2%
88	CCOc1cc(NC(=O)c2ccco2)c(OCC)cc1NC(=O)c1cc(OC)c(OC)c(OC)c1	?
89	Nc1ccccc1OCCOCCOc1ccccc1N	12%
90	Cc1ccc(-n2c(=O)cc(N3CCC(C)CC3)[nH]c2=O)cc1	-5%
91	COc1ccc(Cn2c(=O)n(Cc3ccco3)c(=N)c3c4c(sc32)COC(C)(C)C4)cc1	-4%
92	O=C(O)c1cccc(S(=O)(=O)Nc2ccccc2Cl)c1	-2%
93	CC(C)NC(=O)Nc1cccs1	2%
94	O=C(COc1ccc(S(=O)(=O)N2CCCC2)cc1Cl)NCc1ccc2c(c1)OCO2	-5%
95	Cc1c(C(=O)NCc2ccoc2)oc2ccc3c(c12)C(=O)CC(C)(C)O3	?
96	CN1CCN(c2ccncc2S(=O)(=O)N2CCN(C)CC2)CC1	2%[11.4 µM]
97	CCn1cc(Br)c(C(=O)NC(C)c2ccccc2)n1 (stereo unspecified)	2%
98	CCn1c(/N=C/c2c[nH]c3ccccc23)nc2ccccc21	-8%
99	CN(CCc1ccccn1)S(=O)(=O)c1ccc2c3c(cccc13)C(=O)N2	32µM*
100	Cc1cc(NC(=O)c2noc3c2CCc2ccccc2-3)no1	1%

Along the list, from the results shown.
Nos. 27–34 in HSD17B inh read 6%, -21%, ?, 2%, 6%, 16%, 5%, -7%

Further entries.
entry	canonical_smiles	HSD17B inh
101	N=C(N)c1ccc(N2CCN(C3CCN(CC(=O)O)CC3)CC2)cc1	-21%
102	Cc1cc(C)c2cc(C#N)c(SCC(=O)NCc3ccco3)nc2c1	?
103	CC12CCC(C(=O)NCc3ccc4c(c3)OCO4)(OC1=O)C2(C)C (stereo unspecified)	11%
104	Cc1ccc2c(c1)nnn2C1CCN(CC(=O)N2CCN(c3ccc(F)cc3)CC2)CC1	0%
105	CN1C(=O)N(c2cccc3ccccc23)C(n2cncn2)C1(C)C (stereo unspecified)	3%
106	COc1ncc2nc(-c3ccc(Cl)cc3)c(=O)n(C)c2n1	32µM*
107	Cc1nnc(SCc2cnc(-c3ccc(C(C)C)cc3)s2)n1C	-8%
108	CC(=O)NCCC(=O)Nc1ccc(C)c(F)c1	10%
109	O=C(c1csnn1)N1CCC2(CC1)CCN(c1cccc(-c3ccccc3)c1)CC2	-4%
110	O=C1COc2cccnc2N1	14%
111	CO[C@]1(NC(=O)Cc2cccs2)C(=O)N2C(C(=O)O)=C(COC(N)=O)CS[C@H]21	-1%[25.6 µM]
112	COc1ccc(N2CCN(CC(=O)Nc3c(C)cc(C)cc3C)CC2)cc1	15%
113	O=C(O)c1cccc(CSc2ncccn2)c1	8%
114	CCCc1ccc(OCCNC(=O)CC)cc1	3%
115	CCc1nnc(NC(=O)CSc2nnc3ncccn23)s1	-3%
116	O=C(O)c1cccc(NS(=O)(=O)c2ccc(Cl)c(C(=O)O)c2)c1	-3%
117	COc1ccc2[nH]cc(CCNc3ncncc3-c3ccccc3OC)c2c1	5%
118	COc1ccc(S(=O)(=O)Nc2cc(C(=O)NCCC(C)C)ccc2N2CCOCC2)cc1	-7%
119	CCOc1ccc(S(=O)(=O)Nc2cccnc2)cc1	6%
120	O=C(O)c1cc(-c2ccncc2)nc2ccc(F)cc12	-12%
121	CSC(=O)NC12CC3CC(CC(C)(C3)C1)C2	4%
122	c1ccc2c(c1)CCN(c1nc3ccccc3n3cnnc13)C2	-13%
123	CCCCCCc1ccc(-c2ccc(C#N)cc2)cc1	?
124	CCCCn1c(=S)[nH]c2c(oc3ccc(Cl)cc32)c1=O	-10%
125	O=C(COC(=O)c1cccs1)NCc1ccc2c(c1)OCO2	-9%
126	COC(=O)[C@@H]1C[C@H]1[C@@H](N)c1ccccc1	?
127	Cc1sc(NC(=O)c2ccccc2)c(C(=O)N2CCN(C)CC2)c1C	0%

Screening results as filed in PubChem BioAssay.
